Source: PubChem
HTT promoter inh: HTT promoter inhibition; HEK293 HTT promoter firefly luciferase reporter (activity 0% = vehicle and -100% = no light), 24 h; Potency, µM (series often up to 57.5 µM), for the others: at the top dose activity change, negative = inhibition, actives largely listed as inhibitors; actives 0.93% (n = 48,000); AID 1508623; active = well fitted inhibition curve with a large enough effect; inconclusive = small, poorly fitted or top-dose-only effect; inactive = no such curve, though single readings can be large or run the other way; note: nearly all actives have a fitted effect of over 50% in size
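Firefly luciferase signal from promoter-reporter HEK293 cells was scaled between vehicle (0%) and zero RLU (-100%). Compounds were tested at final concentrations of up to 57.5 uM over 24 h at 37 degrees C. PTC124 at 50 uM final served as control inhibitor.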
PMP22 txn: PMP22 gene transcription modulation | Potency, µM (highest dose often 57.5 µM), for inactives: top-dose activity change, negative = inhibition, most hits filed as inhibitors | actives 2% (n = 43,000) | AID 1508649 | S16 Pmp22-F2sN Schwann cells (luciferase reporters placed in the Pmp22 gene), FLuc/NLuc coincidence luminescence, 24 h; active = clear falling dose curves in both reporters; inconclusive = both reporters move, but less clearly or upward; inactive = either reporter flat; the % is the NLuc reporter signal; note: % is set by controls: 0 for no effect and ±100 for the full control effect; some results filed as inactive show a strong effect at the top dose
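Luminescent read-out of sequential FLuc and NLuc signals from a reporter embedded in the Pmp22 3' UTR of S16 Schwann cells, taken after 24 h compound exposure at 37C; compounds reducing both signals score as inhibitors of expression.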
Active calls of the source: *; ? = inconclusive; · = not tested or not shown; & = joins results of further samples; [ ] = remark or other dose. Potency is the fitted concentration of half-maximal effect. Outcome played no part in choosing rows; about 2.6% have a hit in one of these screens.

SMILES	HTT promoter inh	PMP22 txn
COc1ccccc1Nc1sc(C(=O)c2ccc(F)cc2)c(N)c1S(=O)(=O)c1ccc(C)cc1	-29%	-5%
CCc1ccc(S(=O)(=O)c2cn(CC(=O)Nc3ccc(F)c(Cl)c3)c3ccccc3c2=O)cc1	?	?
COc1ccccc1CNc1cc(-c2ccccc2)nc2nncn12	?	?
COc1ccc(OC(=O)c2cn(-c3cccc(OC)c3)c(=O)c3ccccc23)cc1	-20%	-6%
Cc1noc(-c2ccc(-c3noc(-c4ccc(Cl)cc4)n3)cc2)n1	4%	24%
CCc1ccc(N(CC)C(=O)Cn2nc(Cc3cccnc3)c3ccccc3c2=O)cc1	-24%	?
CCOC(=O)c1c(NC(=O)c2ccc(S(=O)(=O)N3CCC(C)CC3)cc2)sc2c1CCN(CC)C2	?	?
CC(=O)c1ccc(NC(=O)CSc2nccn2C2CCCC2)cc1	-9%	?
O=C(NCc1ccc(F)cc1)c1ccc(Cn2c(SCc3ccc(F)cc3)nc3cccnc32)cc1	-22%	10%
COc1cccc(NC(=O)c2sc3nc(C)c(C(=O)Nc4ccc(C)cc4C)c(-c4sccc4C)c3c2N)c1	2%	7%
C[C@H](NC(=O)OC(C)(C)C)c1nnc(SCc2ccc(Cl)cc2Cl)o1	?	-25%
CC(=O)Nc1ccc(NS(=O)(=O)c2cc(Br)cc3c2N(C(=O)C2CC2)CC3)cc1	-13%	-15%
Cc1ccc(Cn2nnc3c(=O)[nH]c(C4CCN(C(=O)Cc5ccccc5F)CC4)nc32)cc1	-18%	-22%
CCc1c(C)sc2c1CCN(C(=O)Nc1ccccc1C(=O)OC)C2c1ccc(F)cc1 (centres undefined)	-20%	-24%
CCOc1cc2sc(N3CCC(C(=O)Nc4ccc(C)cc4)CC3)nc2cc1Br	85%[activator]	-6%
Cc1ccc(Oc2c(C(F)(F)F)oc3cc(OCC(=O)NC4CCCCC4)ccc3c2=O)cc1	-4%	-22%
Cc1ccc(-n2ncc3c(Nc4ccc(Oc5ccccc5)cc4)ncnc32)c(C)c1	?	?
CN(C)CCNC(=O)c1ccc2nc(Cc3ccccc3)oc2c1	-3%	-12%
CCOCCCn1c(=N)c(C(=O)NCc2cccnc2)cc2c(=O)n3ccccc3nc21	1%	-38%
Cc1nc2ccc(S(=O)(=O)NC(CC(C)C)C(=O)NCc3ccc(Cl)cc3)cc2s1 (centres undefined)	?	-13%
CNC[C@@H](O)[C@@H](O)[C@H](O)[C@H](O)CO	6%	·
O=C(Nc1cccc(Cl)c1)c1ccc2nc(CCc3ccccc3)oc2c1	-4%	10%
CCOc1ccc(N2CC(NC(=O)c3ccc(S(=O)(=O)N4CCCCC4)cc3)CC2=O)cc1 (centres undefined)	-12%	?
CCN1CCN(c2nc3c(S(=O)(=O)c4ccc(C)cc4)nnn3c3ccsc23)CC1	-12%	17µM*
CCn1c(SCC(=O)Nc2c(C)cccc2C)nnc1-c1nonc1NC(C)=O	-19%	-4%
CC(NC(=O)Cn1c(-c2cccs2)cc2cc(F)ccc21)c1ccccc1 (centres undefined)	-25%	8%
COC(=O)c1c(NC(=O)CCCOc2ccc(C)cc2)sc2c1C(C(=O)OC)CC2 (centres undefined)	-11%	-14%
COc1ccc(OC)c(C(=O)CSc2ncc3c(n2)-c2ccccc2N(Cc2ccccc2C)S3(=O)=O)c1	-7%	-2%
CC(C)CCNC(=O)Cc1ccc(NC(=O)N2CCCCc3ccccc32)cc1	-12%	0%
CCOc1ccc(CNC(=O)C2CCN(S(=O)(=O)N3CCC(C)CC3)CC2)cc1OC	-6%	-11%
O=C(CN1C=NS(=O)(=O)c2ccccc21)Nc1ccc(Br)cc1	-14%	41%
O=C1c2ccccc2-c2onc3c(N4CCN(C5CCCCC5)CC4)cc(NCCO)c1c23	-7%	-2%
COc1cccc(CNC(=O)C2=C(C)C(=O)OC23CCN(C(C)=O)CC3)c1OC	-7%	13%
CCOc1ccc2nc(N3CCCC(C(=O)Nc4cccc(Cl)c4C)C3)sc2c1 (centres undefined)	63%[activator]	-1%
N#Cc1nc(-c2ccc(COc3ccccc3)o2)oc1N1CCN(c2ccccc2)CC1	-4%	-69%
COCCn1c(C)cc(O)c(C(c2ccccc2F)N2CCN(c3ccccc3)CC2)c1=O (centres undefined)	-2%	15%
CC(C)NCC(O)c1ccc(O)c(O)c1 (centres undefined)	-6%&4%	·
Cc1cccc(N(C)C(=O)CN(C)S(=O)(=O)c2ccc3[nH]c4c(c3c2)CCCC4)c1	-7%	-16%
COc1ccc(S(=O)(=O)Nc2cc3c(cc2NCc2ccccc2)n(C)c(=O)n3C)cc1OC	129%[activator]	-20%
Cc1nc(-n2nc(C)c(Cc3ccccc3Cl)c2C)sc1C(=O)N1CCC(C)CC1	-1%	-11%

Some values from above:
HTT promoter inh, CCOc1ccc(CNC(=O)C2CCN(S(=O)(=O)N3CCC(C)CC3)CC2)cc1OC = -6%
HTT promoter inh, N#Cc1nc(-c2ccc(COc3ccccc3)o2)oc1N1CCN(c2ccccc2)CC1 = -4%
PMP22 txn, COc1cccc(CNC(=O)C2=C(C)C(=O)OC23CCN(C(C)=O)CC3)c1OC = 13%

Following part.
SMILES	HTT promoter inh	PMP22 txn
Cc1ccc(-c2nnc(SCC(=O)N3CCc4ccccc43)o2)cc1	-5%	?
Cc1ccc2onc(CNC(=O)NCc3ccc(Cl)cc3)c2c1	-13%	-3%
CN(C)CCCN(C(=O)c1ccc(Br)s1)c1nc2ccc(F)cc2s1	3%	?
Cc1ccccc1C(=O)Nc1c(C(=O)Nc2cccc(F)c2)oc2ccccc12	-18%	3%
COCCCNc1ncnc2onc(-c3ccc(F)cc3)c12	-16%	8%
Cc1ccc(-c2nnc(Nc3cccc(Br)c3)c3ccccc23)cc1S(=O)(=O)N1CCN(C)CC1	-17%	?
Cc1ccc(N2CC(NC(=O)Cc3cccs3)CC2=O)cc1 (centres undefined)	-13%	-7%
Cc1ccc2oc(=O)c3cc(C(=O)NCc4ccc(Cl)cc4)sc3c2c1	-8%	-6%
COc1ccccc1NC(=O)CSc1nnc2c3ccccc3n(C)c2n1	-9%	7%
Cc1ccc2c(=O)cc(C(=O)Nc3ccc(S(=O)(=O)N4CCCCC4C)cc3)oc2c1C (centres undefined)	38%[activator]	-6%
Cc1ccccc1NC(=O)C1CCN(C(=O)c2cnn(-c3ccccc3)c2-n2cccc2)CC1	-10%	-1%
CCOC(=O)C1CCCN(C(=O)c2ccc3c(c2)N(Cc2ccccc2)C(=O)c2ccccc2S3(=O)=O)C1 (centres undefined)	-1%	-21%
CCC(C)NC(=O)c1cc2n(n1)CCCN(Cc1ccc(C)cc1)C2=O (centres undefined)	-25%	-13%
Cc1cc(C)c2c(=O)cc(C(=O)Nc3ccc(S(=O)(=O)Nc4onc(C)c4C)cc3)oc2c1	7%	-92%
CN(Cc1nc(-c2ccc(Cl)cc2)no1)S(=O)(=O)c1ccccc1	-2%	-10%
COc1ccc(NC(=O)CSc2oc(-c3cccs3)nc2S(=O)(=O)c2ccc(Br)cc2)c(OC)c1	-9%	-23%
CC(C)(C)OC(=O)N1CCC(c2c(C(=O)N3CCN(c4ccccn4)CC3)cnn2-c2ccccc2)CC1	1%	-28%
COc1ccc(OC)c(-n2nnc(-c3nc(-c4ccc5c(c4)OCO5)no3)c2C)c1	14%	-12%
COc1ccc(CNS(=O)(=O)c2cc3c(cc2Cl)NC(=O)CO3)cc1	-20%	14%
NS(=O)(=O)c1cc(Cl)c(Cl)c(S(N)(=O)=O)c1	-7%	·

Copied from the listing (four entries):
SMILES	HTT promoter inh	PMP22 txn
CC(C)(C)OC(=O)N1CCC(c2c(C(=O)N3CCN(c4ccccn4)CC3)cnn2-c2ccccc2)CC1	1%	-28%
COc1ccc(OC)c(-n2nnc(-c3nc(-c4ccc5c(c4)OCO5)no3)c2C)c1	14%	-12%
COc1ccc(CNS(=O)(=O)c2cc3c(cc2Cl)NC(=O)CO3)cc1	-20%	14%
NS(=O)(=O)c1cc(Cl)c(Cl)c(S(N)(=O)=O)c1	-7%	·

Other entries follow.
SMILES	HTT promoter inh	PMP22 txn
Cc1ccc(S(=O)(=O)c2cn(CC(=O)Nc3cccc(Cl)c3)c3ccccc3c2=O)cc1	-31%	-8%
Cc1cc(C)c(NC(=O)CSc2nc3ccccc3c3nc(CCn4cncc4C)nn23)c(C)c1	?	?
N[C@@H](CSCCCO)C(=O)O	1%[25.2 µM]	·
O=C(c1c[nH]c2ccc(S(=O)(=O)Nc3ccccc3F)cc2c1=O)N1CCCCCC1	-1%	15%
CN(C)C(=O)Oc1ccc[n+](C)c1	2%	·
CCc1ccccc1NC(=O)CSc1nnc(-c2nonc2NC(C)=O)n1C	-22%	0%
Cc1ccc(S(=O)(=O)c2nnn3c2nc(NC2CCCCCC2)c2sccc23)cc1C	-13%	20µM*
Cc1nc(CC(=O)Nc2cccc(C)c2C)cs1	-3%	4%
CCOC(=O)C1CCN(c2nc3c(S(=O)(=O)c4ccccc4)nnn3c3ccc(Cl)cc23)CC1	12%	?
CC(C)COc1ccccc1C1CC(=O)Nc2cc3c(cc21)OCO3 (centres undefined)	?	8.4µM*
CCc1ccccc1NC(=O)Cn1c(=O)n(-c2ccc(C)c(C)c2)c(=O)c2oc3ccccc3c21	-6%	0%
CCOc1ccc2c(c1)c(=O)c(S(=O)(=O)c1ccc(C)cc1)cn2CC(=O)Nc1ccc(C)cc1	-23%	-11%
CCOC(=O)CSC1=Nc2ccccc2C2=NC(CCC(=O)NCc3ccc(F)cc3)C(=O)N12 (centres undefined)	-13%	-29%
CCc1ccccc1NC(=O)Cn1nc2c3cc(F)ccc3n(Cc3cccc(C)c3)cc-2c1=O	-9%	4%
COc1ccc(NC(=O)c2ccc(COc3ccccc3OC)o2)cc1OC	-17%	?
Cc1ccc(NC(=O)CN2C(=O)c3ccccc3Sc3ccc(C(=O)N4CCOCC4)cc32)c(Cl)c1	-29%	-16%
O=C(Nc1ccccc1-c1nc2ccccc2s1)c1cc(Cl)cc(Cl)c1	-12%	7%
CCOC(=O)N1CCC(NC(=O)c2cnn(-c3cccc(F)c3)c2-n2cccc2)CC1	-33%	1%
COc1ccc(Nc2nc3ccc(C)cc3nc2-n2nc(C)cc2C)cc1Cl	-5%	4%
Cc1ccc(NC(=O)CSc2nc3nc(C)c(Cc4ccccc4)c(C)n3n2)cc1	4%	-31%
Cc1ccc(C)c(NC(=O)Cn2c(=O)n(Cc3ccco3)c(=O)c3ccc(C(=O)NC4CCCC4)cc32)c1	-10%	?
Cc1ccccc1NC(=O)c1ccc(CNS(=O)(=O)c2ccc3c(c2)C(C)(C)C(=O)N3C)cc1	-16%	-5%
COC(=O)c1ccc(NC(=O)Cn2c(-c3nonc3N)nc3ccccc32)cc1	0%	-7%
CC(C)(C)C(=O)Nc1ccc2nc(SCCOc3ccccc3Cl)sc2c1	?	?
Cc1cn2c(=O)c(S(=O)(=O)Nc3ccc(OC(F)(F)F)cc3)c(C)nc2s1	?	-29%
COc1cc(C2CC(=O)Oc3c2c(=O)n(C)c2ccccc32)ccc1O (centres undefined)	-11%	2%
Cc1c(C(=O)OCc2ccccc2)[nH]c2c1C(=O)CC(c1ccc(C(C)(C)C)cc1)C2 (centres undefined)	?	?
CC1(C)CCC2=C(O1)c1ccccc1C(=O)C2=O	-16%	·
COc1cccc(NC(=O)Cn2c(=O)n(Cc3ccccc3)c(=O)c3c2c2cc(C)ccc2n3C)c1	4%	-3%
CCOC(=O)c1c(NC(=O)c2nc(SCC)ncc2Cl)sc(C(C)=O)c1C	-12%	-12%
Cc1cc(C)n(C(C)CC(=O)Nc2cccc(C#N)c2)n1 (centres undefined)	1%	-1%
CC(=O)c1cc(-c2ccc(F)cc2)n(CC(=O)NC2CCCCCC2)c1C	-24%	7%
CCOc1ccc(Nc2nc3c(S(=O)(=O)c4cccc(Cl)c4)nnn3c3ccsc23)cc1	?	-71%
O=C(Cn1ncc2c3ccccc3n(Cc3cccc(Cl)c3)c2c1=O)NCCCc1ccccc1	-6%	-19%
COc1ccc2oc(-c3cccc(NC(=O)c4sc5c([N+](=O)[O-])cccc5c4Cl)c3)nc2c1	-10%	10%
CCN(CC)CCNC(=O)c1ccc2c(=O)n3nc(Nc4ccccc4OC)sc3nc2c1	-10%	?
Cc1ccc(CNC(=O)C(=O)Nc2c3c(nn2-c2ccc(F)cc2)CSC3)cc1	-19%	-20%
O=C(COC(=O)c1cc(-c2cccs2)nc2ccccc12)c1ccc(Cl)cc1	-9%	1%

Single records, as listed above. Screens in order: HTT promoter inh | PMP22 txn
Record of Cc1c(C(=O)OCc2ccccc2)[nH]c2c1C(=O)CC(c1ccc(C(C)(C)C)cc1)C2 (centres undefined) : ? | ?
Record of O=C(Cn1ncc2c3ccccc3n(Cc3cccc(Cl)c3)c2c1=O)NCCCc1ccccc1 : -6% | -19%
Record of Cc1cc(C)n(C(C)CC(=O)Nc2cccc(C#N)c2)n1 (centres undefined) : 1% | -1%
Record of Cc1ccc(CNC(=O)C(=O)Nc2c3c(nn2-c2ccc(F)cc2)CSC3)cc1 : -19% | -20%
